TRPML1 agonist – activates the human TRPML1 channel; activation, % (concentration not given with the values); 410,000 compounds, 0.12% hits; TRPML1-expressing cells, Ca2+ dye fluorescence, FDSS; host cell line not named in the record; reference of the full effect not given here; in the data active = activation above about 50%; inconclusive = about 30% to 50%; inactive = below about 30%; also: 0% is about no effect; the text of the record puts the active cut at 80%
Target sequence (Q9GZU1 whole entry, looked up): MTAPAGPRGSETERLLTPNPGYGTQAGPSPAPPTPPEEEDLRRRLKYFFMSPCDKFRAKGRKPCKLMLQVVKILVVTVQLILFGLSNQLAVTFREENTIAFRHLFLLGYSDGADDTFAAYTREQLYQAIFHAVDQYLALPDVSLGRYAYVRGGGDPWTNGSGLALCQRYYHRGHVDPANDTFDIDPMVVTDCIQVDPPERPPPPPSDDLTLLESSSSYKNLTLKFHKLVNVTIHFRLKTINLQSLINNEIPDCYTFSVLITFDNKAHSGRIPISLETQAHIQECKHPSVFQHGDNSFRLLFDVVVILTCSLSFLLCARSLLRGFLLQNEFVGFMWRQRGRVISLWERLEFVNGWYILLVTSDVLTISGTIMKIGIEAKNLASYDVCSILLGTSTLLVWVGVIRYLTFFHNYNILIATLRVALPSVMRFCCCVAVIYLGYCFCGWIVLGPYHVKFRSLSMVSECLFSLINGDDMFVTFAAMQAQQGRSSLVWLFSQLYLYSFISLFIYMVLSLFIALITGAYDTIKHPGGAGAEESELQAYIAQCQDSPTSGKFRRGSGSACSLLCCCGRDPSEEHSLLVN
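Tetracycline-induced TRPML1-DL cells are seeded and incubated overnight before loading with a no-wash Ca2+ dye and quencher. Agonist activity is taken from the 110 s fluorescence read following compound pin-transfer on an FDSS, before EC80 54-4 challenge.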
ClpP mod – qHTS Assay for Activators of ClpP | ATP-dependent Clp protease proteolytic subunit (Bacillus subtilis (strain 168)), P80244 | purified B. subtilis ClpP, FRET peptide cleavage, 20 min | Potency, µM (doses to about 57.5 µM), without a hit: at the highest dose activity change, negative = active | 340,000 compounds, 1.9% hits | AID 651965, 2013; active = well fitted falling curve with a large enough effect; inconclusive = small, poorly fitted or top-dose-only effect; inactive = no such curve, though single readings can be large or run the other way; also: potency is read from the fitted curve at half-maximal effect; the source files actives as falling curves though it sought activators and does not explain the sign; nearly all actives have a fitted effect of over 65% in size; many hits overshoot -100%
Target sequence (P80244 whole entry, looked up): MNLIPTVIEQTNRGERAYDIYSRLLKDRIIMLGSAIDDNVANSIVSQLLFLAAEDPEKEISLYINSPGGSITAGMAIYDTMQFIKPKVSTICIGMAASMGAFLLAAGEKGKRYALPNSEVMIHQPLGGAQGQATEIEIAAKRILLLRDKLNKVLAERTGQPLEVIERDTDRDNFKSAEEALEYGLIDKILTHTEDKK
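FRET quenching reversal measured ClpP activation: 10 microg/mL B. subtilis ClpP at pH 8 with the FRET-FV decapeptide, read at 430 nm after 320 nm excitation. The 20-min minus 0-min signal was scaled between DMSO/no-enzyme wells and ADEP (5.8 microM final).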
gsp ag – agonists of gsp mutant (McCune-Albright syndrome). gsp mutant cells, cAMP HTRF, 30 min; control for the full effect not named in the record. Potency, µM (series often up to 76.9 µM), for inactives: at the top dose activation (cAMP increase), most hits filed as activators. 340,000 compounds, 0.13% hits. AID 624287; active = well fitted activation curve with a large enough effect; inconclusive = small, poorly fitted or top-dose-only effect, or another doubt; inactive = no such curve, though single readings can be large or run the other way; cell line not stated here;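 also: phosphodiesterase inhibitor Ro 20-1724 added with compounds to block cAMP breakdown; potency is read from the fitted curve at half-maximal effect; nearly all actives have a fitted effect of over 60% in size; about a fifth of the inactives were tested at one dose only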
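Cells in DMEM/10% FBS with G418 were pretreated with compounds in DMSO plus […] (300 uM stock) for 30 min at 37C. cAMP was measured by HTRF (cAMP-d2 plus anti-cAMP antibody-K) after 30 min at room temperature.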
Menin-MLL FL inh – displaces fluorescein MLL peptide from human menin; FP activity change, % at 61.4 µM; 290,000 tested, under 10 active; Fluorescence polarization, fluorescein-MLL peptide displacement from menin; AID 1766; inconclusive = falling polarisation curve, or a change in total fluorescence; inactive = total fluorescence flat and polarisation flat or rising; no compound was filed as active; the % refers to the polarisation; negative = inhibition;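 also: % of control where 0% means no effect; inhibitors lower the polarisation; unlabelled MLL peptide was the positive control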
gsp antag – gsp mutant antagonism; gsp-mutant cells, cAMP HTRF, 30 min; control for the full effect not named in the record; Potency, µM (series often up to 76.9 µM), inactives show top-dose activity change, negative = inhibition, most hits filed as inhibitors; 340,000 compounds, 0.4% hits; active = falling curve of any shape with a large fitted effect; inconclusive = falling curve, mostly with a smaller effect; inactive = flat or rising curve; cell line not stated here;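 also: intracellular cAMP measured with PDE inhibitor Ro 20-1724 present during compound exposure; potency is read from the fitted curve at half-maximal effect; % is scaled to controls: 0 for no effect and ±100 for the full control effect; nearly all actives have a fitted effect of over 65% in size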
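HTRF cAMP measurement after 30 min RT detection following 30 min, 37C compound treatment alongside […] (added as 300 uM solution) in G418-selected cells seeded at 2000/well and grown 16–24 h.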
TRPML1 blocker – inhibitors of human TRPML1 channel; AID 624415; Q9GZU1; TRPML1-inducible cells, Ca2+ dye fluorescence, FDSS; stronger effect = lower value; inhibition of EC80 agonist-evoked calcium signal; 390,000 compounds, 0.02% hits; activity change, negative = inhibition, % (test concentration not listed); in the data active means activity change below about -50%; inconclusive means about -30% to -50%; inactive means above about -30%;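 also: stimulus is agonist 54-4 at its EC80 concentration; % is scaled to controls: 0 for no effect and ±100 for the full control effect; compound concentration not given in the record; the text of the record puts the active cut at -80%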
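Tet-induced TRPML1-DL cells loaded with Ca8 no-wash calcium dye were read kinetically on FDSS. Compound addition was followed by EC80 agonist 54-4 (4 uM final); inhibition was read over 110 s.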
* hit, by the source's call; ? = inconclusive; nt = not tested or not shown; [ ] = another dose, or the depositor's remark.

Start of the listing, in advance, two compounds:
no. | SMILES | TRPML1 agonist | ClpP mod | gsp ag | Menin-MLL FL inh | gsp antag | TRPML1 blocker
1 | O=C1NC(=O)/C(=C/c2cc3c(cc2Br)OCO3)S1 | 1.1 | nt | ? | 0.2 | -18% | 2
2 | CCCCNc1c(-c2ccc(OC)c(SC3CCCCC3)c2)nc2cnccn12 | 4.6 | -26% | ? | nt | -7% | 14

The listing, repeating the preview:
no. | SMILES | TRPML1 agonist | ClpP mod | gsp ag | Menin-MLL FL inh | gsp antag | TRPML1 blocker
1 | O=C1NC(=O)/C(=C/c2cc3c(cc2Br)OCO3)S1 | 1.1 | nt | ? | 0.2 | -18% | 2
2 | CCCCNc1c(-c2ccc(OC)c(SC3CCCCC3)c2)nc2cnccn12 | 4.6 | -26% | ? | nt | -7% | 14
3 | CC(=O)Nc1ccc(NC(=O)CCCn2cnc3ccccc3c2=O)cc1 | -0.2 | 0.4% | ? | -5.2 | 17% | -15
4 | CCOC(=O)CSc1nc(NC#N)nc(N(CC)CC)n1 | -0.8 | 0.2% | 0% | 7.8 | -21% | -2
5 | CN(C)c1ccc(/C=N/NC(=O)CCCO)cc1 | -0.3 | nt | -21%[15.4 µM] | -1.6 | -28% | -8
6 | CC1CCN(C2CC(=O)N(c3ccc(Br)cc3Br)C2=O)CC1 (stereo unspecified) | 0.3 | nt | -1%[15.4 µM] | 0.4 | 2% | -10
7 | Cc1ccc2c(c1)C1CN(C)CCC1N2C(=O)c1ccccc1NS(=O)(=O)c1cccc(C(F)(F)F)c1 (stereo unspecified) | -0.3 | -0.9% | -4% | 3.0 | -9% | -17
8 | Fc1ccc(CSc2nnc3ccc(-c4ccncc4)nn23)cc1 | nt | -0.2% | ? | 0.4 | -8% | nt
9 | CC1CN/C(=C\C(=O)c2ccc(Br)cc2)C(=O)N1 (stereo unspecified) | 1.4 | 1.4% | -1% | -3.2 | 5% | 8
10 | COC(=O)c1ccccc1NC(=O)N(Cc1ccc(C)cc1)Cc1cccn1-c1nnc(N2CCCC2=O)s1 | 1.0 | ? | nt | nt | nt | -7
11 | CC1CCc2c(C(=O)NCCN3CCOCC3)csc2C1 (stereo unspecified) | -0.3 | -1.7% | -15% | 0.3 | 5% | -9
12 | Cc1ccc(NC(=O)CN(C)S(=O)(=O)c2cccs2)cc1C | -0.1 | 1.2% | -27% | 1.8 | -13% | -10
13 | COc1ccc(-c2c(C(F)(F)F)oc3c(CN4CCN(C)CC4)c(O)ccc3c2=O)cc1 | -0.8 | -0.2% | -25% | 0.0 | -2% | 0
14 | CCCn1c2ccccc2c2nnc(SCC(=O)OCC)nc21 | -0.7 | -16% | 26% | 0.4 | 2% | 3
15 | CC(C)c1ccc(NC2CCCN(C(=O)CCN3CCCC3=O)C2)cc1 (stereo unspecified) | 1.1 | -1.3% | -12% | -4.1 | 5% | 32
16 | O=C(Nc1c(C(=O)N2CCN(c3ccccn3)CC2)oc2ccccc12)c1ccc([N+](=O)[O-])cc1 | -0.2 | 0.8% | -20% | -0.8 | -2% | 13
17 | FC(F)(F)c1nc2nncn2c2c1CCCCC2 | -0.9 | 32µM* | 0% | 3.0 | 7% | -2
18 | COc1ccccc1N1CCN(c2cc(=O)n(-c3ccc(Br)cc3)c(=O)[nH]2)CC1 | -0.6 | 1.6% | -23% | 2.2 | -10% | -13
19 | Oc1ccc(Nc2nc(-c3ccccc3F)nc3ccccc23)cc1 | nt | 1.1% | 18% | -11 | -1% | nt
20 | CCOc1ccc(NC(=O)Nc2cccc(C(=O)O)c2)cc1 | -0.3 | nt | -27%[15.4 µM] | 2.8 | 3% | 1
21 | COc1cc(OC)cc(C(=O)OCc2cc3ccccc3[nH]c2=O)c1 | -0.2 | -9.6% | ? | 3.3 | 7% | 4
22 | CCCC(=O)Nc1ccc(NC(=O)C23CC4CC(CC(C4)C2)C3)cn1 | 0.0 | 0.5% | -11% | 0.2 | -10% | 3
23 | COc1cc(CN2CC(=O)N(c3ccc(C)c(Cl)c3)C2=S)cc(OC)c1OC | 0.6 | nt | 1% | 0.0 | -18% | 20
24 | O=C(CCSCc1ccc(Cl)cc1)NCc1cccnc1 | -0.2 | nt | -10%[15.4 µM] | -1.1 | 14% | 3
25 | C=CCN(c1ccccc1)S(=O)(=O)c1ccc2c(c1)N(C(C)=O)CCO2 | 0.7 | -1.4% | -3% | -0.7 | 3% | 7
26 | COc1ccc(NC(=O)C(OC(=O)Cn2cnc3c2c(=O)n(C)c(=O)n3C)c2ccccc2)cc1Cl (stereo unspecified) | 1.7 | -0.5% | -10% | nt | -19% | -17
27 | COc1cc(OC)cc(C(=O)NC2=NCCS2)c1 | 0.2 | -4.9% | 5% | 3.6 | 10% | -1
28 | Cc1ccccc1NC(=O)c1ccc2snnc2c1 | 0.8 | 1.4% | -29% | -3.6 | -12% | 3
29 | COc1cccc(OCC(=O)NNC(=O)c2ccc3ccccc3c2)c1 | 0.7 | ? | 22% | nt | 5% | -15
30 | Cc1ccc2nc(C)c(C(=O)N/N=C/c3cccc([N+](=O)[O-])c3)cc2c1 | 0.3 | 1.7% | -41%[inhibitor] | 4.5 | -18% | 3
31 | CC(C)(C)C(=O)NC(c1ccccc1)c1c(O)ccc2ccccc12 (stereo unspecified) | nt | 3.8% | 2% | 1.0 | ? | nt
32 | COc1ccc(-c2nc(CS(=O)(=O)CC(=O)NCc3cccc(F)c3)c(C)o2)cc1 | 1.3 | -20% | ? | -2.2 | -9% | -2
33 | CCCCN(C(=O)Cn1nnc2ccccc21)C(C(=O)NCCOC)c1ccc(OC)cc1 (stereo unspecified) | -0.6 | -0.7% | -36% | -0.8 | 10% | 7
34 | Clc1ccc(/C=N/Nc2ccccn2)cc1 | 0.6 | nt | -28% | 1.4 | 5% | -3
35 | Cc1cc(=O)n(C(C)C(=O)N2CCCc3ccccc32)c2c1c(C)nn2-c1ccccc1 (stereo unspecified) | 4.2 | -28% | nt | nt | nt | 23
36 | O=C(O)c1ccccc1S(=O)(=O)NCC(O)COC1CCCCC1 (stereo unspecified) | -1.1 | 0.9% | -8% | 0.3 | 10% | 19
37 | CCOC(=O)C1CCCN(C(=O)c2cc3ccc(OC)cc3[nH]2)C1 (stereo unspecified) | -1.1 | -1.7% | 3%[15.4 µM] | 5.5 | -23% | -4
38 | COc1ccc(/C=N/OCC(=O)Nn2c(C)nc3ccccc3c2=O)cc1 | 0.3 | 1.3% | -32%[inhibitor] | -2.2 | 9% | 15
39 | CN1CCN(S(=O)(=O)c2ccc3[nH]cc(C(=O)O)c(=O)c3c2)CC1 | -0.1 | -29% | 10% | -1.7 | 4% | -6
40 | CCOc1ccc(N=Nc2c(=O)[nH]n3c(C)cc(C)nc23)cc1 | -0.3 | -5.4% | -2%[15.4 µM] | 25 | -7% | 16
41 | COc1ccc(CN2CCC(n3nccc3NC(=O)c3ccc4c(c3)OCO4)CC2)cc1C | -0.7 | 2.6% | -1% | nt | 6% | 26
42 | CC(C)(C)OC(=O)C[C@@H]1C/C=C\C[C@@H](CC(=O)N[C@H](CO)Cc2ccccc2)C(=O)N2CCC[C@@H]2COC1=O | -0.3 | -1.2% | 0% | nt | -2% | -19
43 | CN(CC1CCOCC1)C(=O)CC1C(=O)NCCN1Cc1ccc(F)c(F)c1 (stereo unspecified) | -0.1 | 130% | 0%[15.4 µM] | nt | -3% | 5
44 | CCCCN(C)CCCNC(=O)Cn1cc2c(n1)-c1c(oc(C(=O)N3CCCC3)c1C)CC2 | -0.2 | -1.4% | -20% | nt | nt | -9
45 | COc1cccc(NC(=O)CN(C)C(=O)c2cccc(S(=O)(=O)N3c4ccccc4CC3C)c2)c1 (stereo unspecified) | 1.9 | -1.0% | -16% | nt | -1% | 12
46 | O=C(Nc1nnc(Cc2ccccc2)s1)c1ccccc1 | -0.6 | nt | ? | ? | 6% | -3
47 | Cc1ccc(C(=O)OCC(=O)Nc2c(Cl)cc(S(N)(=O)=O)cc2Cl)o1 | 0.1 | -1.4% | 0% | 0.5 | 6% | -17
48 | CC(NC(=O)CSc1nnc(COc2ccccc2)o1)c1ccccc1 (stereo unspecified) | 0.6 | 0.0% | -1% | 1.0 | -7% | 4
49 | Cc1cccc(CSc2nc3cccnc3n2Cc2ccc(C(=O)NCc3cccs3)cc2)c1 | 3.9 | 4.8% | nt | nt | nt | 7
50 | Cc1cccc(C)c1NC(=O)CN1C(=O)NC(C)(C2CC2)C1=O (stereo unspecified) | 0.7 | -3.2% | 7% | nt | -8% | -5
51 | CCc1ccc(NC(=O)CSc2nc3c(sc4ccccc43)c(=O)n2CCN(CC)CC)cc1 | -0.4 | 4.1% | nt | nt | nt | -13
52 | Cc1ccc(C)c(OCC(=O)NCC(c2ccco2)N2CCCCC2)c1 (stereo unspecified) | 2.1 | -2.6% | 14% | nt | 1% | 16
53 | CCOC(=O)c1sc(NC(=O)c2ccco2)nc1-c1ccccc1 | 1.5 | -4.1% | ? | 3.3 | 15% | 24
54 | Cc1nnc2ccc(-c3cccc(NS(=O)(=O)c4ccccc4Cl)c3)nn12 | 0.1 | -3.6% | -1%[15.4 µM] | nt | 14% | -5
55 | COc1ccc(OC)c(C(=O)COC(=O)c2cccnc2Cl)c1 | nt | -5.9% | 17% | -3.2 | 3% | nt
56 | Cc1ncoc1C(=O)N1CCCC(CCC(=O)NCc2ccccc2F)C1 (stereo unspecified) | -0.3 | nt | 12% | -1.1 | 9% | -2
57 | COc1ccc(/C=C(\NC(=O)c2ccco2)C(=O)N2CCCCC2)cc1 | 0.0 | nt | 26% | -1.7 | 3% | 6
58 | CCOC(=O)N1CCC(NC(=O)CCS(=O)(=O)c2ccc3c(c2)CCN3C(=O)CC)CC1 | 0.2 | -2.1% | -1% | 6.7 | 6% | 2
59 | CCOc1ccccc1CN1CCN(S(=O)(=O)c2ccccc2)CC1 | 1.2 | 1.1% | nt | nt | nt | -6
60 | COc1ccccc1/C=C/C=N/NC(=O)Cc1cccs1 | -0.2 | -1.7% | 15%[15.4 µM] | nt | -24% | 31

Remaining list, next part
no. | SMILES | TRPML1 agonist | ClpP mod | gsp ag | Menin-MLL FL inh | gsp antag | TRPML1 blocker
61 | Cc1cc(=O)[nH]c2nnc(-c3ccc(Br)cc3)n12 | -0.5 | -0.5% | 9% | -2.6 | 7% | -15
62 | O=C(Cn1nnc2sc(-c3ccccc3)cc2c1=O)Nc1cccc(C(F)(F)F)c1 | 0.7 | 4.5% | nt | nt | nt | -18
63 | CC(C)c1ccc(NC(=O)CSC2=Nc3ccccc3C3=NC(CCC(=O)NC4CCCCC4)C(=O)N23)cc1 (stereo unspecified) | -0.4 | 4.5% | nt | nt | nt | 19
64 | Cc1csc(NC(=O)c2c(-c3c(Cl)cccc3Cl)noc2C)n1 | 0.8 | -4.2% | ? | 1.5 | -17% | -10
65 | CCN(CC)C(=O)C(Sc1nnnn1-c1ccc(O)cc1)c1ccccc1 (stereo unspecified) | 0.8 | nt | -1%[15.4 µM] | -0.2 | -14% | 30

Screening data from PubChem BioAssay.
